# Source: PubChem BioAssay
# LASV entry inh: qHTS for Inhibitors of binding or entry into cells for Lassa Virus | Lassa virus pseudotype entry inhibition, cell reporter; control for the full effect not named in the record | Potency, µM (highest dose often 37.9 µM), inactives show at the highest dose activity change, negative = inhibition, most hits filed as inhibitors | hit rate 1.2% among 300,000 | AID 540256, 2011; active means well fitted inhibition curve with a large enough effect; inconclusive means small, poorly fitted or top-dose-only effect, or effect the other way; inactive means flat fitted curve, though single readings scatter; tested in HEK293 cells; also: % is scaled to controls: 0 for no effect and ±100 for the full control effect; nearly all actives have a fitted effect of over 50% in size; luciferase read-out
# StopGo reporter: High Throughput Screening for Foot and Mouth Disease Virus Antivirals. Potency, µM (doses to about 57.9 µM), for the others: at the highest dose signal change, negative = less light. human cells with a luciferase reporter of 2A StopGo recoding; control for the full effect not named in the record. hit rate 1.2% among 410,000; active = well fitted falling curve with a large enough effect; inconclusive = small, poorly fitted or top-dose-only effect; inactive = no such curve, though single readings can be large or run the other way; tested in HEK293T cells; also: % is scaled to controls: 0 for no effect and ±100 for the full control effect; nearly all actives have a fitted effect of over 45% in size; luciferase light after 4 h
# SARS PLpro yeast: qHTS of Yeast-based Assay for SARS-CoV PLP; hit rate 0.19% among 330,000; S. cerevisiae expressing SARS-CoV PLpro, growth rescue; control for the full effect not named in the record; Potency, µM (series often up to 32.9 µM), for the others: at the highest dose activity, positive = growth rescue; also: 0% is about no effect; nearly all actives have a fitted effect of over 55% in size; growth read by luminescence after 48 h
# NS1 function inh: qHTS Assay for Inhibitors of Influenza NS1 Protein Function | S. cerevisiae slowed by influenza A NS1, growth recovery by OD600 | Potency, µM (doses to about 46.1 µM), for the others: top-dose activity, positive = more growth | hit rate 0.4% among 270,000 | AID 2326, 2010; also: actives are rising curves; nearly all actives have a fitted effect of over 50% in size
#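 Read-out: OD600 growth recovery of NS1-expressing budding yeast. Cells grown overnight at 30C in -URA glucose medium, washed, resuspended and diluted 1:100 in 2% galactose assay medium, pH 6.0. Same strain lacking NS1 served as positive control.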
# Cruzain inh noDet: qHTS Assay for Promiscuous and Specific Inhibitors of Cruzain (without detergent); AID 1476, 2009; Potency, µM, for the others: max response, negative = inhibition, most hits filed as inhibitors; Cruzipain (Trypanosoma cruzi), P25779; purified cruzain, Z-FR-AMC fluorescence, no detergent; hit rate 2.3% among 200,000; active = well fitted curve in the direction sought with a large enough effect; inconclusive = small, poorly fitted or top-dose-only effect, or another doubt; inactive = no such curve, though single readings can be large; an effect the other way counts as inactive or inconclusive;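 also: plate controls were enzyme without inhibitor for no effect and buffer without enzyme for full effect; nearly all actives have a fitted effect of over 40% in size; top concentration of the series not given in the record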
# Target sequence (P25779 123-467 limits assumed): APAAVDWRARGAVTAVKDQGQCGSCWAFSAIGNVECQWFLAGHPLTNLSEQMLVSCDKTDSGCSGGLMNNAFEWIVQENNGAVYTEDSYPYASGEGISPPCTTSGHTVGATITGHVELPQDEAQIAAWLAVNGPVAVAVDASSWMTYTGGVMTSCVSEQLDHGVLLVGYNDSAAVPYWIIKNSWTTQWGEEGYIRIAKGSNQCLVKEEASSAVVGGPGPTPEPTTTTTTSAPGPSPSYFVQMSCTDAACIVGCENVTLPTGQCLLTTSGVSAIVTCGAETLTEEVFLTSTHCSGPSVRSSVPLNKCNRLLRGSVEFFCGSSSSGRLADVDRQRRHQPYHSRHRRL
#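 Detergent-free condition (0.00005% Triton X-100) in acetate buffer pH 5.5 with DTT. 1.5 nM enzyme and compound were pre-mixed 15 min, then 2 uM Z-FR-AMC substrate added; reaction progress from fluorescence change between first and third reads (60 s).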
# RE007 growth inh: qHTS Assay for Inhibitors of the HIV-1 protein Vpr; S. pombe RE007 Vpr strain, BacTiter-Glo ATP luminescence, 24 h; control for the full effect not named in the record; Potency, µM (doses to about 92.2 µM), inactives show top-dose activity change, negative = less growth; hit rate 0.21% among 360,000; AID 651644, 2012; active = well fitted falling curve with a large enough effect; inconclusive = small, poorly fitted or top-dose-only effect; inactive = no such curve, though single readings can be large or run the other way;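 also: % is scaled to controls: 0 for no effect and ±100 for the full control effect; nearly all actives have a fitted effect of over 50% in size; the assay follows cell death caused by Vpr and the record does not say whether a fall means rescue or toxicity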
#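 Fission yeast strain RE007, carrying one chromosomally integrated HIV-1 vpr copy, was seeded at OD 0.01 in PMG+AL medium with 23 nL pinned compound. After 24 h at 30 °C and 99% humidity, viability was read by BacTiter-Glo luminescence.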
# Cruzain Triton: qHTS Assay for Promiscuous and Specific Inhibitors of Cruzain (with detergent) | Cruzipain (Trypanosoma cruzi), P25779 | hit rate 0.43% among 200,000 | Potency, µM, inactives show max response, negative = inhibition, actives largely listed as inhibitors | purified cruzain, Z-FR-AMC fluorescence, 0.01% Triton | AID 1478, 2009; active = well fitted curve in the direction sought with a large enough effect; inconclusive = small, poorly fitted or top-dose-only effect, or another doubt; inactive = no such curve, though single readings can be large; an effect the other way counts as inactive or inconclusive;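 also: plate controls were neutral wells for no effect and buffer without enzyme for full effect; nearly all actives have a fitted effect of over 40% in size; top concentration of the series not given in the record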
#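 Compounds were screened in titration against cruzain (1.5 nM) with 0.01% Triton X-100 to counter colloidal aggregation. Activity was the AMC fluorescence increase over 60 s after adding 2 uM Z-FR-AMC at pH 5.5.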
# Marburg entry inh: qHTS for inhibitors of binding or entry into cells for Marburg Virus. Marburg virus pseudotyped entry inhibition, cell reporter; control for the full effect not named in the record; about a third of the inactives were read at about 46 µM. Potency, µM (doses to about 37.8 µM), inactives show at the highest dose activity change, negative = inhibition, usual class: inhibitors. hit rate 1.8% among 300,000. AID 540276, 2011; active = well fitted inhibition curve with a large enough effect; inconclusive = small, poorly fitted or top-dose-only effect, or effect the other way; inactive = flat fitted curve, though single readings scatter; tested in HEK293 cells; about a fifth of its hits are not listed in these tables; also: % is scaled to controls: 0 for no effect and ±100 for the full control effect; luciferase read-out
# Active calls of the source: *; ? = inconclusive; / = not tested or not shown; & = joins results of further samples; [ ] = remark or other dose. Unless noted, calls follow the shape of the dose curve; as a rule, active means well fitted rising curve with a large enough effect; inconclusive means small, poorly fitted or top-dose-only effect; inactive means no such curve, though single readings can be large or run the other way. Potency is read from the fitted curve at half-maximal effect.
SMILES,LASV entry inh,StopGo reporter,SARS PLpro yeast,NS1 function inh,Cruzain inh noDet,RE007 growth inh,Cruzain Triton,Marburg entry inh
CCCCNCc1cc2ccccc2o1,/,-9%,1%,2%,/,2%,/,/
CC(C)(C)c1ccc(C(=O)NCC(=O)OCN2C(=O)c3ccccc3C2=O)cc1,-2%,13%,-17%,-21%,9%,-6%,-3.9%,-6%
S=C(NCc1ccccc1)N1CCN(Cc2ccc3c(c2)OCO3)CC1,0%,-3%,0%,-9%,/,-6%,/,?
O=C(Nc1ccc(F)cc1)N(CCCN1CCOCC1)Cc1cc2cc3c(cc2[nH]c1=O)OCO3,13%,-2%,6%,-4%,-3%,-4%,-5.6%,-1%
COc1ccc(CCNC(=O)CN2C(=O)NC(Cc3c[nH]c4ccccc34)C2=O)cc1 (stereo not drawn),?,-9%,1%,0%,/,6%,/,27%[46.1 µM]
Cc1nn(-c2ccccc2)c(C)c1/C=N/NC(=O)c1cc(C23CC4CC(CC(C4)C2)C3)[nH]n1,?,?,-4%,0%,?,16%,-3.9%,?
CCc1nc(CNC(=O)C2CCC(=O)N(CCc3cccc(F)c3)C2)no1 (stereo not drawn),14%,-12%,1%,0%,/,1%,/,-1%
CN(C(=O)COC(=O)CSc1ccc([N+](=O)[O-])cc1)c1ccccc1,18%,-17%,-4%,/,/,-32%,/,12%
COc1ccc(CNC(=O)c2cc(-c3ccc(Cl)cc3)n[nH]2)cc1,-15%[46.1 µM],-6%,/,/,1%,/,-2.2%,/
Cc1ccc(C)c(OCCCCCn2ccnc2)c1,3%,-9%,-1%,1%,0%,-23%,-0.6%,-28%
Cc1cc(C)c(C(=O)N2CCCC(CNS(=O)(=O)c3cccs3)C2)o1 (stereo not drawn),/,?,-1%,23%,/,2%,/,/
O=C(O)C1C2OC(C(Br)C2Br)C1C(=O)O (stereo not drawn),-22%[46.1 µM],-3%,/,/,/,2%,/,-4%[46.1 µM]
COc1ccc(OCC(=O)N2CCN(c3nnc(-c4ccccc4)c4ccccc34)CC2)cc1,?,?,-6%,-87%,10%,-6%,-2.1%,?
Cc1cc(C)c(NC2=NS(=O)(=O)c3ccccc32)c(C)c1,0%,28%,-8%,-2%,9%,-1%,7.7%,-1%
COc1ccc(S(=O)(=O)N(CC(=O)N2CCN(C)CC2)C2CCCCC2)cc1OC,5%,-10%,3%,1%,7%,4%,4.8%,-9%
COC(=O)Cc1ccc(NC(=O)c2ccc3c(c2)C(=O)N(CC2CCCO2)C3=O)cc1 (stereo not drawn),14%,28µM*,-3%,0%,/,-27%,/,10%
CC(C)C(Cl)=NOC(=O)Nc1ccc(F)cc1,-6%[46.1 µM],?,/,/,/,10µM*,/,-27%
COc1ccc(Nc2cc(C(=O)NCCCN(C)Cc3ccccc3)c3ccccc3n2)cc1OC,2%[46.1 µM],-16%,/,/,-12%,/,-7.7%,/
CN(C(=O)c1cnc(N2CCN(c3ncccn3)CC2)c2ccccc12)c1ccc(Cl)cc1,?,20µM*,1%,-65%,?,1%,-4.9%,/
Cn1c(N)c(C(=O)CSc2nc(N)cc(=O)[nH]2)c(=O)n(C)c1=O,7%,0%,18%,-4%,2%,0%,5.5%,?
NC(=O)CSc1nccn1Cc1ccc(Cl)cc1,?,-11%,0%,-6%,/,-12%,/,0%
O=C(NCC(c1ccco1)N1CCCCC1)C(c1ccccc1)c1ccccc1 (stereo not drawn),?,-22%,-2%,/,/,-19%,/,?
COc1ccc(/C=C(/C(=O)c2ccc(Cl)cc2Cl)n2cncn2)cc1,11%,?,-36%,-44%,?,1%,-5.4%,-2%
O=C(Nc1ccccc1OC(F)F)c1cccc(S(=O)(=O)N2CCCC2)c1,/,17%,5%,0%,/,7%,/,/
COc1ccc(S(=O)(=O)NC(C(=O)NCCc2ccccn2)C(C)C)cc1 (stereo not drawn),30%,-4%,-7%,5%,/,-5%,/,7%
Cc1ccccc1-c1nnc(SCC(=O)N(C)c2ccccc2)o1,4%[46.1 µM],21%,/,/,-8%,/,-5.2%,?
COc1ccc(CCNC2CC(=O)N(N(C)C)C2=O)cc1OC (stereo not drawn),6%[46.1 µM],-12%,-1%,-50%,/,-1%,/,6%
CCC(CC)C(=O)Nc1ccc2nc(SCC(=O)N3c4ccccc4CC3C)sc2c1 (stereo not drawn),?,0%,/,/,2%,/,-2.7%,?
Cc1ccccc1NC(=S)N(Cc1cccnc1)Cc1ccccc1Cl,1%,-8%,-1%,-2%,/,3%,/,-14%[46.1 µM]
Fc1cccc(-n2ncc3c2ncn2nc(COc4ccc(Cl)cc4)nc32)c1,-6%[46.1 µM],-22%,/,/,1%,/,0.5%,4%[46.1 µM]
O=S(=O)(c1ccccc1)N1CCN(C(c2ccccc2)c2ccc(OC(F)(F)F)cc2)CC1 (stereo not drawn),/,-14%,0%,11%,/,-7%,/,/
O=C(NCCn1cc(SCc2ccc(F)cc2)c2ccccc21)c1ccccc1F,-82%,28µM*,-13%,14%,1%,-1%,-6.2%,?
CCc1nc2ccccc2c(C(=O)OCC(=O)C(C)(C)C)c1C,-12%,?,-9%,-1%,/,1%,/,11%[46.1 µM]
COc1ccc(OC)c(C2C(C(=O)c3ccc(C)o3)=C(O)C(=O)N2c2cc(C)on2)c1 (stereo not drawn),/,-25%,1%,6%,/,0%,/,/
Cc1cc(C)c2[nH]c(=O)c(CN(CC3CCCO3)C(=O)C3CCCO3)cc2c1 (stereo not drawn),21%,0%,-1%,5%,-2%,-9%,1.9%,18%
Cc1ccc2nc(-c3ccco3)c(Nc3ccc4c(c3)OCCO4)n2c1,?,25%,/,/,-21%,/,-20%,?
CCOc1cc(C(=O)NCCc2csc3nc(-c4ccccc4F)nn23)cc(OCC)c1OCC,3%[46.1 µM],-16%,/,/,2%,/,-1.2%,/
CCn1c(=NC(=O)c2cccc(N3C(=O)CCC3=O)c2)sc2c(C)ccc(OC)c21,?,2%,0%,7%,/,3%,/,-33%[46.1 µM]
N#CCSc1nnc(Cc2cccc3ccccc23)n1C1CCCCC1,-3%,?,1%,-11%,1%,4%,-8.2%,0%
O=C(NNC(=S)NC(=O)c1ccccc1)c1cccnc1,/,-3%,-9%,-17%,/,12%,/,/
Cc1cccc(/C=N/n2c(C)nc3ccccc3c2=O)c1,/,8%,1%,-4%,/,-5%,/,/
Cc1cc(=O)[nH]c(SCC(=O)NC(c2ccccc2)c2ccccc2)n1,/,7%,3%,/,/,-8%,/,-10%[46.1 µM]
O=C(Nc1cccc2ncccc12)c1ccc(F)cc1,8%,-8%,-44%,7%,-3%,-5%,-1.8%,-5%
CCOc1ccc(NC(=O)Nc2c(C)n(C)n(-c3ccccc3)c2=O)cc1,-3%[46.1 µM],16%&8%,0%,-1%,5%,0%,0.7%,0%[46.1 µM]
CCNc1nc(NCC)nc(C(=O)Nc2ccccc2)n1,26%,3%,0%,-13%,1%,-7%,0.4%,19%
CCN(c1ccc(OC)cc1)S(=O)(=O)c1ccc2c(c1)CC(C)N2C(=O)C1CC1 (stereo not drawn),/,-12%,-7%,0%,/,-2%,/,/
C/C=C(\C)CN1CCN(c2cccc(C)c2C)CC1,10%,/,1%,-3%,-3%,2%,4.1%,-18%
Cn1cc(C(c2ccccn2)c2cn(C)c3ccccc23)c2ccccc21,?,0%,-11%,18%,-26%,-14%,-0.2%,-36%
COC(=O)c1ccc2c(c1)N(Cc1cc(C)ccc1C)C(=O)c1ccccc1S2(=O)=O,?,14%,/,/,-10%,/,1.5%,/
CN(CC(=O)Nc1ncn[nH]1)S(=O)(=O)c1cc(Cl)ccc1Cl,0%,-16%,-5%,-1%,/,-14%,/,-13%

# (cont.)
SMILES,LASV entry inh,StopGo reporter,SARS PLpro yeast,NS1 function inh,Cruzain inh noDet,RE007 growth inh,Cruzain Triton,Marburg entry inh
CCCCCN(C(=O)NC(=O)Nc1cccc(C)c1C)S(C)(=O)=O,?,-12%,0%,/,/,-8%,/,-4%[46.1 µM]
CCC(C)N(C(=O)Cn1nnc2ccccc21)C(C(=O)NCc1ccco1)c1cccc(OC)c1 (stereo not drawn),3%,-2%,3%,0%,-2%,20%,2.9%,4%
CN1CCc2c(OCC(=O)NC3CCCCC3)cccc2C1=O,?,-27%,-3%,6%,/,1%,/,-10%
O=C(CSc1n[nH]c(-c2ccco2)n1)Nc1sc2c(c1C(=O)Nc1ccccc1)CCCC2,-18%,-18%,1%,-30%,-16%,-24%,-5.1%,?
Cc1cc(OCc2cc(C(=O)N3CCN(CC4CC4)CC3)no2)cc(C)c1Cl,/,27%,-1%,-20%,/,-1%,/,/
CCOc1ccc(N2C(=O)Nc3ccc(Br)cc3C2(O)C(=O)NCCN(C)C)cc1 (stereo not drawn),5%,-5%,0%,-3%,/,4%,/,19%
CC(=O)Nc1ccc(C(=O)OCC(=O)Nc2ccc([N+](=O)[O-])cc2C(F)(F)F)cc1,14%,-4%,3%,-17%,-20%,6%,-3.8%,?
Nc1sc2c(c1C(=O)NC1CCS(=O)(=O)C1)CCCC2 (stereo not drawn),/,-3%,0%,-30%,15%,0%,1.7%,/
CC(C)N(Cc1nc(-c2ccccc2)no1)S(=O)(=O)c1ccccc1,/,?,1%,-96%,4%,4%,0.0%,/
CCC(C(=O)NNC(=O)c1cnccn1)c1ccccc1 (stereo not drawn),-17%,-10%,3%,8%,1%,-3%,-1.7%,?
O=c1cc(Nc2ccc3c(c2)OCCO3)[nH]c(=O)n1-c1ccc(Cl)cc1,/,-18%,-1%,-32%,-20%,-8%,-4.5%,/
C=CCc1c(C)nc(C)nc1N/N=C/c1ccc([N+](=O)[O-])cc1,1%,-13%,-16%,-9%,3%,-8%,-14%,8%[46.1 µM]
